NPYLR7 agonist: activates Aedes aegypti NPYLR7 receptor; HEK293T NPYLR7/Galpha15, GCaMP6s calcium fluorescence; activation, % at 10 µM; 270,000 tested, 0.15% active; AID 1259423; in the data active means activation above about 40%;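 further: 0% = vehicle and 100% = reference agonist at the receptor; some compounds past the cut are filed as inactive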
NPYLR7 agonist max-min: recorded beside NPYLR7 agonist, whose call it bears; activation, %; measured here: Max-Min RFU normalised activation; some inactives read as strong as hits;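 span of the calcium signal over five minutes; 0% = vehicle and 100% = native peptide agonist; compound fluorescence can raise it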
An asterisk follows results filed as active; & = joins results of further samples.

SMILES	NPYLR7 agonist	NPYLR7 agonist max-min
O=C(Nc1ccccc1F)N1CCN(CCc2ccccc2)CC1	4	-1
COc1cc(C(=O)Nc2nnc(Cc3ccccc3)s2)ccc1C	7	3
CCCCN(Cc1cccn1Cc1cccc(C)c1)C(=O)CN(CC(C)C)C(=O)c1ccc(Cl)cc1Cl	-5	2
COc1cc(Br)c(S(=O)(=O)NC(=O)/C=C(/C)C2CC2)cc1OC	3	3
CCC(NC(=O)c1cc(OC)c2c(c1)OCCO2)c1cccs1 (centres undefined)	4	2
Clc1nc(-c2ccccc2CN2CCOCC2)ns1	8	4
CC(C)CC(CN(C)C)NCc1cnc(C(C)(C)C)s1 (centres undefined)	7	4
CCS(=O)(=O)Nc1ccc2c(c1)CCCN2C(C)=O	7	0
O=C(CCC1CCN(C(=O)C(=O)c2ccccc2)CC1)NCc1cccnc1	27	13
Cc1ccc(Nc2nc(-c3ccccc3)c3cc(Br)ccc3n2)c(C)c1	-1	3
O=S(=O)(c1cnc[nH]1)N1CCN(c2ccccc2)CC1	11	4
COCCN(Cc1ccc2c(c1)OCO2)Cc1ccc(C(O)(c2cccs2)c2cccs2)o1	2	2
Cc1ccc(C2c3nc[nH]c3CCN2Cc2cc(C)ccc2O)cc1 (centres undefined)	-4	5
Cc1ccoc1C(=O)Nn1cnc2ccccc2c1=O	0	-1
C#CCOCC(O)CN(CCc1nc(-c2cccc(Cl)c2)no1)Cc1ccccc1 (centres undefined)	0	0
COc1c(C)cc(C)cc1-c1nccn1CC1CCCOC1 (centres undefined)	2	4
S=c1[nH]nc(-c2cccnc2)n1Cc1ccccc1	0	-4
COc1ccccc1C(C)NC(=O)CN1CCc2sccc2C1 (centres undefined)	1	-1
CCOC(=O)C1(CC2CC2)CCN(S(=O)(=O)c2ccc(Cl)cc2)CC1	5	1
CN(CC(F)F)S(=O)(=O)c1c(F)cccc1Br	7	3
COc1ccccc1NC(=O)N1CCN(c2nc(-c3ccc(Cl)cc3)nc(C)c2Cc2ccccc2)CC1	-4	0
CC(O)CN1CCN(CCC(=O)N2CCCCC2)CC1 (centres undefined)	6	3
COC(=O)CN1CC2(CCN(C(=O)/C=C/c3cc(F)ccc3F)CC2)OC1=O	0	28
CN1C(=O)N(CCCc2ccncc2)C(=O)C12CCN(Cc1ccc3c(c1)OCO3)CC2	16	3
Cc1ccsc1CN(Cc1ccc2c(c1)OCO2)C(=O)CN(C(=O)c1ccccc1F)C1CCCCC1	-9	-18
COc1ccc2[nH]c3c(c2c1)CCN(C(=O)c1ccc(OC)c(C(F)(F)F)c1)C3c1ccc(-c2ccccc2C(F)(F)F)o1 (centres undefined)	6	-5
CC1(C(=O)NCC(F)(F)F)CC1(Cl)Cl (centres undefined)	-5	-3
COc1ccc(C(=O)COC(=O)c2ccc(OC)c(OC)c2OC)cc1OC	-10	-11
c1ccc(-c2nc3c(c(N4CCN(Cc5cccc6cccnc56)CC4)n2)CCC3)cc1	1	0
CCc1cc(C)cc(OCCOc2ccc(/C=N\n3cnnc3)cc2)c1	0	1
Cc1cccc(C)c1OCc1n[nH]c(=S)n1N	4	11
Cc1cc(NC(=O)c2cc(=O)c3ccccc3o2)n(-c2nc(C)c(C)c(=O)[nH]2)n1	10	5
CN(C)c1ccc(C(F)(F)F)cc1NS(=O)(=O)c1ccccc1Cl	-2	-2
COc1cccc(-c2cc(C(=O)NCC3(C)CC(C)=NO3)[nH]n2)c1 (centres undefined)	8	5
O=S(CSc1nc(Br)ns1)c1nc(Br)ns1 (centres undefined)	4	5
O=C(CN(CCCN1CCOCC1)C(=O)Nc1ccccc1F)N(Cc1ccc2c(c1)OCO2)Cc1ccco1	-6	-4
NC(=O)C(NC(=O)C=C(C1CC1)C1CC1)c1cccc(Br)c1 (centres undefined)	2	2
CCOc1ccc(C2=NOC(C)C(=O)N2Cc2ccccc2)cc1 (centres undefined)	0	0
CCOC(=O)c1nn(-c2ccc(C)cc2)c(=O)c2c(NC(=O)Cc3ccc(Cl)cc3)scc12	4	-2
Fc1cccc(CSc2nc(Oc3ccc(Cl)cc3)cc(C(F)(F)F)n2)c1	0	12

Arranged by molar mass (ascending): some entries from above
SMILES	NPYLR7 agonist	NPYLR7 agonist max-min
Cc1cccc(C)c1OCc1n[nH]c(=S)n1N	4	11
CCOc1ccc(C2=NOC(C)C(=O)N2Cc2ccccc2)cc1 (centres undefined)	0	0
Fc1cccc(CSc2nc(Oc3ccc(Cl)cc3)cc(C(F)(F)F)n2)c1	0	12
O=S(CSc1nc(Br)ns1)c1nc(Br)ns1 (centres undefined)	4	5
CCOC(=O)c1nn(-c2ccc(C)cc2)c(=O)c2c(NC(=O)Cc3ccc(Cl)cc3)scc12	4	-2
O=C(CN(CCCN1CCOCC1)C(=O)Nc1ccccc1F)N(Cc1ccc2c(c1)OCO2)Cc1ccco1	-6	-4

(list continues)
SMILES	NPYLR7 agonist	NPYLR7 agonist max-min
COc1cnc(-c2cccc(C(=O)N(C)C)c2)c(NC(=O)C(C)C)n1	-28	-30
CCN(CC)S(=O)(=O)c1cc(C(=O)N(C)C2CCC(C)CC2)ccc1Cl (centres undefined)	-4	-6
Cc1nccn1CCCN1CCCCC1c1ccccn1 (centres undefined)	8	-3
CCCN(CC(=O)Nc1cc(-c2ccccc2)nn1-c1ccc(F)cc1)C(=O)Nc1cccc(CC)c1	17	24
CC(CNC(=O)c1ccc(CN2CC(C)OC(C)C2)cc1)CN1CCCC1=O (centres undefined)	1	0
CNC(=O)c1ccc(CN(C)Cc2ccc3c(c2)nnn3C)cc1	-1	27
O=C(Nc1cccc(C2=NCCN2)c1)Nc1cccc(C2=NCCN2)c1	-18	-26
CCOc1ccccc1NC(=O)N(CC(=O)N1c2ccccc2-n2cccc2C1c1cc(OC)ccc1OC)C1CC1 (centres undefined)	-7	3
CCC(C)NC(=O)c1cc(NC(=O)Nc2ccccc2C(F)(F)F)ccc1N1CCc2ccccc2C1 (centres undefined)	1	5
CCOc1nn(CC)cc1C(=O)NC1CCCCC1	1	2
CCc1ncc(CN2CCN(Cc3cccc(C)c3)CC2)cn1	0	0
COc1ccc(OC)c(C(C)NCC(O)c2ccccc2)c1 (centres undefined)	0	-2
COc1cc2c(c(OC)c1OC)C(c1cccc(O)c1)CC(=O)N2 (centres undefined)	-18	-24
COc1ccc(-c2csc(-c3c(N)c(C(=O)c4ccccc4)n4ccccc34)n2)cc1	-1	1
O=C(CN1CCN(c2ccc(O)cc2)CC1)N1CCCCCC1	4	2
Cc1ccccc1S(=O)(=O)NC(=O)C1(C)CCN1C(=O)Cc1ccc(C(C)(C)C)cc1 (centres undefined)	5	4
Cc1cc2c(cc1CN(C)Cc1c(C)noc1C)OCO2	-1	4
COc1ccc(C2Nc3cccc4cccc(c34)N2)c(OC)c1OC	5	2
N#C/C(=C\c1cc(Cl)ccc1OCc1c(F)cccc1Cl)c1nn(CCO)c(N)c1C#N	0	-3
Cc1ccc(-c2ccnc(NCC3(Cn4cccn4)CC3)n2)c(C)n1	23	19
NS(=O)(=O)c1cccc(NC(=O)CSc2nnnn2-c2ccc(O)cc2)c1	0	7
Cc1cccc(Oc2cc(C(C)(C)C)nc(SCc3ccccc3Cl)n2)c1	1	9
Cn1nccc1C(=O)Nc1ccc(OC(=O)c2ccnn2C)cc1	-7	-9
CNS(=O)(=O)c1ccc(CN(C)Cc2ccc3nsnc3c2)cc1	3	3
CN(C)c1ccc(NC(=O)c2cccc(F)c2)cc1CN(Cc1ccco1)C(=O)c1cccs1	3	5
CCCCCc1ccc(C(=O)N(CC(=O)N(Cc2ccccc2)Cc2sccc2C)C2CCCCC2)cc1	21	26
Cc1cc(C)cc(N=C2NC(=O)/C(=C/c3ccc(Cl)cc3)S2)c1	-6	-11
COCCCN(Cc1c(-c2cccc(C)c2)noc1N1CCCC1)C(=O)c1cccc(OC)c1	1	13
CC(C)(C)c1cc(CN2CCCn3nc(C(=O)N4CCCC4)cc3C2)[nH]n1	-6	-6
O=C(Nc1ccc(F)cc1)N1CCC(CCc2ccc(C(F)(F)F)cc2)CC1	4	2

Copied from the list.
NPYLR7 agonist result of `O=C(Nc1ccc(F)cc1)N1CCC(CCc2ccc(C(F)(F)F)cc2)CC1` is entered as 4
NPYLR7 agonist max-min result of `CN(C)c1ccc(NC(=O)c2cccc(F)c2)cc1CN(Cc1ccco1)C(=O)c1cccs1` is entered as 5

Another view of part of the listing above:
SMILES: CCCCCc1ccc(C(=O)N(CC(=O)N(Cc2ccccc2)Cc2sccc2C)C2CCCCC2)cc1
- NPYLR7 agonist: 21
- NPYLR7 agonist max-min: 26
SMILES: Cc1cc(C)cc(N=C2NC(=O)/C(=C/c3ccc(Cl)cc3)S2)c1
- NPYLR7 agonist: -6
- NPYLR7 agonist max-min: -11
SMILES: COCCCN(Cc1c(-c2cccc(C)c2)noc1N1CCCC1)C(=O)c1cccc(OC)c1
- NPYLR7 agonist: 1
- NPYLR7 agonist max-min: 13
SMILES: CC(C)(C)c1cc(CN2CCCn3nc(C(=O)N4CCCC4)cc3C2)[nH]n1
- NPYLR7 agonist: -6
- NPYLR7 agonist max-min: -6

Next part
SMILES	NPYLR7 agonist	NPYLR7 agonist max-min
O=C1CCC(C(=O)N2CCC(C(=O)N3CCOCC3)CC2)CN1CCCc1ccccc1 (centres undefined)	-1	-7
CCCC(O)CN1CC(C)(C)CN(C(=O)c2ccc(OC)c(OC)c2)CC1=O (centres undefined)	1	8
CC(C)CNC(=O)NC(=O)C(C)SCCN(C)C (centres undefined)	2	0
CCc1ncc(C(=O)NCc2cc3c(O)n(CC)cc3nc2OC)cn1	3	3
Oc1ccccc1-c1nnc2n1N=C(c1ccc(F)cc1)CS2	16	15
CN(Cc1cc(C2CC2)n[nH]1)Cc1nc(Cc2ccccc2F)no1	4	0
CC(C)COc1cccc(C(=O)N2CCN(Cc3cc(=O)n4ccsc4n3)CC2)c1	5	1
CCCOc1ccc(CSc2nnc(CC)n2N)cc1	-10	-15
CCc1ccc(-c2noc(CN3C(=O)NC4(CCC(C)CC4)C3=O)n2)cc1 (centres undefined)	1	0
NC(=O)NCc1cccs1	3	10
COC(=O)c1ccccc1S(=O)(=O)N1CCC(c2c[nH]c3ccc(F)cc23)CC1	25	24
Cc1ccc(-n2cc[nH]c2=S)c(C)c1	0	-2
CCC(=O)Nc1sc(C)c(C)c1C(N)=O	1&5	8&5
CC1(Cc2cccc(F)c2)C(=O)Nc2c(Cl)ccc(Cl)c21 (centres undefined)	-2	2
CCCOc1cc(C)ccc1S(=O)(=O)N1CCCC1	-5	-8
O=C(NCc1nnnn1-c1ccccc1)c1ccc2ccccc2c1	-1	-2
Cc1nn(-c2ccccn2)c2c1C(Cl)=C(/C=N\NC(=O)c1ccncc1)CC2	12	17
CCOc1cc(C=NNc2nc(C)cs2)ccc1OC	-4	-5
CC(C)NC(=O)c1ccc(Cl)c(NC(=O)CN2C(=O)c3cccnc3C2=O)c1	4	1
FC(F)(F)c1nc(Oc2ccc(-c3nnco3)cc2)c2ccccc2n1	-2	8
COc1ccccc1CN1CC(O)CN(C(=O)CCc2ccccc2)CC1=O (centres undefined)	19	26
CCOC(=O)C1(CCc2ccccc2)CCCN(C(=O)C2=C(C)OCCO2)C1 (centres undefined)	6	-1
Cc1ccccc1CSc1nc2c(c(=O)n1-c1ccc(F)cc1)SCC2	-2	46
CC(C)C[N+]1=C2SCCCN2C(O)(c2ccc(OC(F)F)cc2)C1 (centres undefined)	8&7	6&5
O=S1(=O)CCCCN1c1ccccc1	5	6
CC(CCc1ccccc1)NC(=O)N(C)Cc1ccc(N(C)C)cc1 (centres undefined)	-3	-7
CCN(C)c1ccc(/C=C2/SC(=S)NC2=O)cc1	19	6
c1ccc(-n2cc(CN3CCN(c4ncnc5ccccc45)CC3)cn2)cc1	3	2
O=C(O)CNC(=O)c1ccc([N+](=O)[O-])o1	3	2
COc1cc(/C=C2\SC(=Nc3cc(C)cc(C)c3)NC2=O)ccc1O	-8	-16
COc1ccc(-n2nc(C(=O)NC3CC3)c(=O)n(Cc3ccc(F)cc3)c2=O)cc1	8	5
COc1ccc(C2CCCN2c2cn[nH]c(=O)c2Cl)cc1 (centres undefined)	-10&6	-7&0
CCN(CC)S(=O)(=O)c1ccc(N(C)C)c(NS(=O)(=O)c2ccccc2Cl)c1	7	11
COc1ccc(CCOc2nc(-c3cccc(C(F)(F)F)c3)n(-c3ccc(NC(=O)c4ccc(F)cc4)cc3)n2)cc1	7	14
COc1ccc(NC(=O)c2cc3ccccc3oc2=O)cc1Cl	-7	-10
CN(Cc1cnccn1)C(=O)NC1CC1C1CCCCC1 (centres undefined)	-1&-12	-2&-11
CCC(C)N(Cc1c(-c2ccccc2)noc1N1CCOCC1)C(=O)c1ccccc1OC (centres undefined)	0	8
OC1CNC(c2cc(F)ccc2F)C1 (centres undefined)	8	5
CC1C(=O)N(c2ccc([N+](=O)[O-])cc2)CCN1C(=O)c1ccc(F)cc1 (centres undefined)	2	5
O=C(c1ccc2ccccc2c1)N1CCn2c(nnc2C(=O)N2CCCCC2)C1	9	7
CCOC(=O)N(NC1=NS(=O)(=O)c2ccccc21)S(=O)(=O)c1ccc2ccccc2c1	-11	-19
CCOC(=O)C1(C)CCN1C(=O)c1ccc(-c2ccccc2)cc1 (centres undefined)	4	4
C=CCN(CC=C)CC(O)CN1c2ccccc2Sc2ccccc21 (centres undefined)	3	-1
CNC(=O)[C@@H]1C[C@@H](N)CN1Cc1cc2c(cc1OC)OCCCO2	0	8
O=C(O)c1ccc(Cl)c(S(=O)(=O)N2CC=C(c3ccccc3)CC2)c1	1	-4
CNC(=O)c1ccccc1NC(=O)c1ccc(C)cc1C	0	-1
COCCNC(=O)c1coc(CN(Cc2ccccc2)Cc2ccccc2C)n1	8	-3
O=c1ccc(-c2cccs2)nn1CCCNS(=O)(=O)c1ccc2c(c1)OCCO2	0	-1
Oc1oc(-c2cccc3ccccc23)nc1C=Nc1ccc(I)cc1	-1	-8
CC(=O)NCCc1csc2nc(-c3ccccc3C)nn12	-3	-4
O=c1[nH]c(C=Cc2ccsc2)nc2sc3c(c12)CCCCC3	3	3

Compound activity from PubChem BioAssay.

The list is partial; the hit share may differ from the screen's.
